Screens (PubChem)
MgrA-DNA mod: S. aureus MgrA activity modulators, primary screen, biochemical, S. aureus Newman, fluorescence polarization; MgrA-DNA binding; inhibition, %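 (about 10 µg/mL by stock and volumes)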; 84,000 tested, 0.13% active; AID 602314, 2012;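 active means above 50% in either of two replicates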;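 further: 0% = protein plus DNA without compound and 100% = DNA alone without protein; higher means less MgrA bound to DNA so lower polarization; one replicate is shown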
Sa helicase inh: inhibitors of S. aureus replicative helicase, primary screen, biochemical, fluorescence unwinding readout. inhibition, %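 (tested at about 80 µM)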. 120,000 tested, 0.05% active. purified S. aureus helicase, fluorescence unwinding assay; about half of the hits fall short of the stated cut;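 active means both duplicates at 50% or more, or one of them with a favoured structure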;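 further: 0% = mean of negative control wells and 100% = mean of positive control wells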
Active calls of the source: *; . = not tested or not shown.

SMILES | MgrA-DNA mod | Sa helicase inh
O=S(=O)(c1ccc2ccccc2c1)N1CCN(c2ncnc3sccc23)CC1 | . | 0.0
CS(=O)(=O)N(CCC#N)Cc1ccc(/C=C2\C(=O)N(c3ccccc3)c3ccccc32)o1 | . | -20.0
Oc1[nH]c2c(Cl)cc(Cl)cc2c1N=C1N=c2ccccc2=N1 | -0.7 | -11.0
COc1ccc(CCN2CC(C(=O)NCc3ccc(F)cc3)CC2=O)cc1OC (stereo unspecified) | 4.5 | 14.0
O=C(CS(=O)(=O)c1c[nH]c2ccccc12)N1CCc2ccccc21 | . | 12.0
Fc1ccccc1-c1nc(-c2cccs2)c(-c2cccs2)[nH]1 | . | -46.0
CCOc1cc(/C=C2\SC(=NC)N(C)C2=O)c(Br)cc1OC(C)=O | -1.3 | -3.0
O=C(CN1C(=O)COc2ccccc21)c1ccc(Cl)cc1 | -1.5 | 7.0
C=C1C(C(=O)Nc2ccccc2)C1C(=O)Nc1ccccc1 (stereo unspecified) | 0.1 | -19.0
Cc1ccc(-c2nn(CCC(=O)O)cc2/C=C2\SC(N)=NC2=O)cc1 | 1.2 | 16.0
CC(=O)Nc1ccc(NC(=O)CC(c2ccccc2)c2ccccc2)cc1 | 1.4 | -14.0
CC1(C)CC(=O)C2=C(C1)OC1=C(C(=O)CC(C)(C)C1)C2c1ccccc1F | 8.5 | .
O=C(Oc1ccc(F)cc1Cl)c1cc2ccccc2s1 | -2.2 | .
CCc1nc2c(cnn2-c2ccccc2)c(=O)n1CCc1ccccc1 | -1.9 | 12.0
OCC1OC(Oc2ccc3cc(Br)ccc3c2)C(O)C(O)C1O (stereo unspecified) | 0.3 | 5.0
Cc1ccc(/C=C/C(=O)N2CCN(c3ncc(C(F)(F)F)cc3Cl)CC2)o1 | . | -5.0
CCn1c(Cc2ccccc2)nnc1SCC(=O)c1ccc2[nH]c(=O)[nH]c2c1 | . | 16.0
CN(C)c1ccc(C2C3=C(CC(C)(C)CC3=O)Nc3ccccc3N2C(=O)Cc2ccccc2)cc1 (stereo unspecified) | -1.0 | .
N#Cc1c(/N=C/c2cccn2-c2ccc(S(N)(=O)=O)cc2)sc2c1CCCC2 | 3.7 | 0.0
COc1cc(-c2csc(NCC3CCCO3)n2)cc(OC)c1OC (stereo unspecified) | . | 28.0
COc1ccccc1N1CCN(S(=O)(=O)c2ccc3[nH]c4c(c3c2)CCCCC4)CC1 | . | -18.0
CCN1CCOC(CC(=O)Nc2ccccc2)C1=O (stereo unspecified) | -6.8 | 2.0
Cc1ccc(Cn2ncc3c(Nc4ccc(C)cc4)ncnc32)cc1 | . | -8.0
CN(C)c1c(C(C#N)=C(C#N)C#N)c2ccccc2n1C | 1.1 | -8.0
CCOC(=O)c1ccc(NCN2C(=O)c3ccccc3C2=O)cc1 | -16.3 | .
COc1ccccc1OCC(=O)Nc1sc2c(c1C#N)CCCC2 | -2.9 | 16.0
Cc1nc2ccc(NC(=O)c3ccc4ncsc4c3)cc2s1 | . | 10.0
COc1cc2c(cc1OC)CN(C(=O)CSc1nnc3ccc4ccccc4n13)CC2 | 0.6 | 8.0
CS/C(Nc1cccc(Cl)c1Cl)=C(/C#N)C(=O)c1cccs1 | 2.5 | .
Cc1cccc(C(=O)Nc2ccc(NC(=O)c3cccs3)cc2)c1 | 0.2 | 2.0
Cc1cc(C)cc(C(=O)NCC(=O)N2CCN(c3cccc(Cl)c3)CC2)c1 | 2.2 | -4.0
Cc1cccc(NC(N)=O)c1 | . | 9.0
CSc1nnc(-c2ccc(S(=O)(=O)N=S(C)(=O)c3ccc(Cl)cc3)s2)n1C (stereo unspecified) | . | 11.0
COc1ccc(OC)c2[nH]c(=O)c(CCNC(=O)c3ccco3)cc12 | . | 13.0
CC(C)C(=O)N(Cc1cccnc1)Cc1cc2ccccc2[nH]c1=O | -1.4 | 4.0
Cc1cc(C)nc(-n2nc(C)cc2NC(=O)c2ccc(F)cc2F)n1 | 0.0 | -18.0
C=CCN1C(=O)/C(=C\c2ccccc2O)SC1=S | . | 3.0
COC(=O)CCC1CCCCC1=O (stereo unspecified) | 0.3 | 9.0
COc1ccc(C2Oc3ccc(Br)cc3C3CC(c4cccs4)=NN32)cc1OC (stereo unspecified) | -0.1 | .
Cc1csc(Sc2ccc(S(=O)(=O)N3CCCC3)cn2)n1 | . | 5.0
COC(=O)CC1Oc2ccc(C)cc2NC1=O (stereo unspecified) | . | 17.0
O=C(O)CSCc1cn2cc(Cl)ccc2n1 | . | -17.0
CCCN1C(=S)N(CCO)C(=O)/C1=C/C=C1/Oc2ccccc2N1CCC(=O)O | 16.4 | -266.0
CCOC(=O)C1C(=O)NC(SCC(=O)OC)=C(C#N)C1c1ccccc1OCC (stereo unspecified) | 1.8 | .
O=C(Cc1ccccc1)OCC(=O)N1CCC(Cc2ccccc2)CC1 | 3.0 | 22.0
C/C(Cc1ccccc1)=N\NC(=O)c1cc(C(C)(C)C)[nH]n1 | 0.9 | -4.0
CC(C)Oc1ccccc1C(=O)NC(CO)C(=O)O (stereo unspecified) | 0.2 | -11.0
Cn1nccc1C(=O)Nc1cc(Cl)ccc1Cl | -2.6 | 4.0
CC12CC=CCC1C(=O)N(CCC(=O)O)C2=O (stereo unspecified) | -1.7 | 1.0
CC(C)(C)C(=O)Nc1ccc2c(c1)OCCO2 | 5.0 | 9.0
O=C(c1nnc(-c2ccccc2)o1)C1CCCC1 | -1.5 | 4.0
O=C1CCC(C(=O)OCC(=O)NC23CC4CC(CC(C4)C2)C3)N1 (stereo unspecified) | -3.6 | -18.0
COc1ccccc1NC(=O)Nc1ccnn1Cc1ccccc1 | . | -6.0
O=c1c2ccccc2c(C=Nc2ccccc2Cl)c(O)n1-c1ccc(Cl)cn1 | -0.4 | -13.0
CCOc1nc(SCCOc2ccc(C)cc2)nc(N(C)C)n1 | 0.6 | .
CCn1c(-c2ccc3c(c2)OCCO3)cnc1SCC(=O)N1CCCC1=O | . | 9.0
O=C(Nc1cc(F)ccc1F)N1CCN(c2ccnc3cc(Cl)ccc23)CC1 | 2.5 | .
CCCCn1c(CO)nc2ccccc21 | -3.1 | -4.0
CC(C)(C)N(CCO)C(=O)CN1C(=O)/C(=C/c2cccc(Br)c2)SC1=S | 1.1 | -3.0
COC(=O)c1cc2occc2n1Cc1ccccc1 | 1.3 | 15.0

New compounds follow:
SMILES | MgrA-DNA mod | Sa helicase inh
COc1ccc(CCNC(=O)c2cc3oc4ccccc4c3n2C)cc1OC | . | -22.0
O=C(OCc1cc(F)cc(F)c1)c1cc([N+](=O)[O-])cc([N+](=O)[O-])c1 | -1.9 | .
CCC(=O)Nc1cc2c(cc1C(=O)CC)OCCO2 | 2.8 | 4.0
O=C(Cc1csc(NC(=O)Nc2ccc(Cl)cc2)n1)Nc1nccs1 | . | 0.0
Cc1nc(-c2coc3cc(O)cc(O)c3c2=O)cs1 | . | -19.0
N#CC1=C(N)Oc2c(c(=O)[nH]c3ccccc23)C1c1ccccc1 (stereo unspecified) | . | -21.0
NS(=O)(=O)c1ccc(CCNC(=O)CCCn2c(=O)[nH]c3ccc(Br)cc3c2=O)cc1 | . | 12.0
CSc1ccc(/C=c2/sc3nc4c(C)c(C)ccc4n3c2=O)cc1 | 5.0 | 3.0
CC(=O)Nc1ccc(SCC(=O)Nc2ccc(C#N)cc2)cc1 | . | 6.0
O=C(NCCc1ccccc1)C1c2ccccc2C(=O)N1C1CCCCCC1 (stereo unspecified) | . | 7.0
COc1ccc(-c2nc3ncnn3cc2C)cc1F | -1.8 | .
CCOC(=O)c1cc2ccc(OCc3ccccc3)cc2oc1=O | 3.1 | 10.0
O=C(CSCc1ccccc1)Nc1cccc(-c2cn3cccnc3n2)c1 | -1.9 | 3.0
CN1CCC(/C=C/c2cccs2)=N1 | -3.2 | .
[O-][n+]1onc2c(-c3ccc(Cl)cc3)nnc(-c3ccc(Cl)cc3)c21 | 1.6 | -20.0
Cc1nnc(-c2cccc(C(F)(F)F)c2)nc1NC(C)(C)C | -2.1 | .
COc1ccccc1C(=O)N=S1CCN(c2ncc(C(F)(F)F)cc2Cl)CC1 | . | 26.0
CC1=NN(c2cccc(Br)c2)C(=O)/C1=C/c1ccc(-c2ccc3c(c2)C(=O)OC3)o1 | -0.8 | .
COc1ccc(C(=O)OCc2nc3ccccc3c(=O)n2CC#N)c(OC)c1OC | . | 12.0
CC(C)CNc1c(Cl)cnn(C)c1=O | 0.6 | 20.0
Cc1cccc(NC(=O)CO/N=C/c2ccc3c(c2)OCO3)c1 | . | 46.0
Cc1nc2sc3c(c2c(=S)[nH]1)CCC3 | . | -6.0
CN(C)C(CNC(=O)c1cc2ccccc2oc1=O)c1ccco1 (stereo unspecified) | . | 12.0
N#CC(C#N)C(CC(=O)c1ccccc1)c1ccc2c(c1)OCO2 (stereo unspecified) | 1.9 | 4.0
Cc1cc(/C=C2\SC(=Nc3ccccc3)NC2=O)c(C)n1-c1ccccc1 | 0.2 | .
c1coc(-c2nnc3n2CCCCC3)c1 | 0.4 | -24.0
COc1ccc(NC(=O)COc2ccc(/C=N/n3c(C)nnc3C)cc2OC)cc1 | . | 1.0
Nc1ccc(C(=O)Nc2ccc(C(=O)O)cc2N)cc1 | -2.2 | 0.0
CC(C)Cn1cc(C(=O)NCc2ccco2)c2c3ccccc3n(C)c2c1=O | 1.1 | 10.0
COc1ccc(N(CC(=O)Nc2ccc(C(C)C)cc2)S(=O)(=O)c2c(C)noc2C)cc1 | . | -28.0
O=C(NCc1ccccc1)c1ccc2ncccc2c1 | . | -15.0
Cn1nc(C(F)(F)F)c(C#N)c1N1CCN(c2ccccc2)CC1 | 1.8 | .
Cn1c(SCC#N)nnc1-c1ccc2ncccc2c1 | -1.8 | .
CSc1ccccc1NC(=O)CN1c2ccccc2CC1C (stereo unspecified) | . | -6.0
Cc1cc(C)n(-c2ccc(-n3cccc3)cc2)n1 | -0.2 | .
CCOC(=O)C1(NC(=S)N2CCOCC2)Sc2cc(C)ccc2NC1=O (stereo unspecified) | -0.4 | -2.0
COc1ccc(CO)cc1OCc1ccccc1 | -1.2 | .
COc1ccc(OC)c(C(=O)COC(=O)C2Cc3ccccc3CN2C(=O)c2ccco2)c1 (stereo unspecified) | . | 1.0
CCS(=O)(=O)N1CCc2cc(C(=O)CSc3nnc(-c4cccs4)n3C3CC3)ccc21 | . | -6.0
CCOC(=O)c1cnc2c(c(C)nn2C)c1Sc1ccc(Cl)cc1 | 0.2 | .
CCOC(=O)Cc1nc(N)ncc1C(=O)OCC | 0.2 | .
O=c1nc2n(c3ccccc13)C(c1ccccc1)C(O)=C2c1nc2ccccc2[nH]1 (stereo unspecified) | . | -4.0
Cc1nc(SCC(=O)c2c[nH]c3ccccc23)n[nH]1 | 0.6 | 8.0
Cc1cc(NC(=O)CC(c2ccccc2)c2ccccc2)no1 | -0.2 | -21.0
CC(=O)N1CCN(CC(O)COc2ccc(OCc3ccccc3)cc2)CC1 (stereo unspecified) | . | -5.0
CCOC(=O)c1sc(COc2ccc(C3SCCS3)cc2)nc1C | 3.1 | .
O=C(CSc1nc(-c2ccccc2)c(-c2ccccc2)o1)c1ccc[nH]1 | . | 21.0
CS(=O)(=O)Nc1nnc(CSc2ccccc2)s1 | 7.5 | 11.0
O=C1C2C(C(=O)N1c1ccccc1)C1C=CC2C12CC2 (stereo unspecified) | . | -9.0
Nc1ccc2nc(N3CCOCC3)sc2c1 | . | -6.0
CCOCCCNc1ccc2nc3ccc(C)cc3c(=O)n2n1 | . | 45.0
N/C(=N\OC(=O)Oc1ccccc1)c1ccccn1 | . | 45.0
CN(C)/C=C/C=C1/CCc2ccccc2C1=O | 8.9 | -230.0
CCCn1c(C)cc(-c2csc(NC(=O)Cc3ccc(OC)cc3)n2)c1C | . | 14.0
c1ccc(N=C(Nc2ccccc2)Nc2ccccc2)cc1 | 0.7 | .
O=C(Cn1c(=O)n(CC2CCCO2)c(=O)c2ccccc21)c1ccccc1 (stereo unspecified) | . | 8.0
N#Cc1c(NC2=CC(=O)CCC2)sc2c1CCCC2 | . | 4.0
Cc1ccc(-c2nn(-c3ccccc3)cc2CN(Cc2ccccc2)C(=O)CCC(=O)O)o1 | . | -25.0
O=C(Cc1ccccc1)Nc1ccccc1N1CCOCC1 | 1.2 | -14.0
NC(=O)c1ccc(N=Cc2ccc(O)cc2)cc1 | 2.7 | 3.0

Going on with the list.
SMILES | MgrA-DNA mod | Sa helicase inh
COc1cc2c(cc1OC)C(c1ccc([N+](=O)[O-])cc1)=NCC2 | 2.2 | .
CC(=O)S[C@@H]1CC2=CC(=O)CC[C@]2(C)[C@H]2CC[C@@]3(C)[C@@H](CC[C@@]34CCC(=O)O4)C12 (stereo partly specified) | 3.8 | .
Cc1cc(=O)[nH]c(NN=C2CCN(Cc3ccccc3)CC2)n1 | . | -15.0
CSCCSc1nc(-c2cccs2)c(-c2cccs2)[nH]1 | . | -4.0
Cc1nc(SCC(=O)Nc2ccc(S(N)(=O)=O)cc2)c2c3c(sc2n1)CCCC3 | -2.5 | .
C=CCOc1c(Cl)cc(/C=N\n2nnnc2N)cc1OC | -3.3 | 11.0
Cc1ccc(OCCC(=O)N2CCN(Cc3ccccc3)CC2)cc1 | . | -19.0
COc1cc(N)cc(OC)c1OC | . | 9.0
N#Cc1c(NC(=O)C2CC2)sc2c1CCC2 | . | 0.0

4 of these compounds in a different format.
MgrA-DNA mod | Sa helicase inh | SMILES
. | -15.0 | Cc1cc(=O)[nH]c(NN=C2CCN(Cc3ccccc3)CC2)n1
-2.5 | . | Cc1nc(SCC(=O)Nc2ccc(S(N)(=O)=O)cc2)c2c3c(sc2n1)CCCC3
-3.3 | 11.0 | C=CCOc1c(Cl)cc(/C=N\n2nnnc2N)cc1OC
. | 0.0 | N#Cc1c(NC(=O)C2CC2)sc2c1CCC2

The list is partial; count on the stated rates, not on these rows.
